Mtb betalactam: beta-lactam sensitization of Mtb H37Rv | M. tuberculosis H37Rv growth with meropenem, percent inhibition; hits of this screen are not shown here | 330,000 tested, 0.27% active | inhibition, % at 25 µM;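 active means about 74% or more and at least 40 points above the plate without the antibiotic, then above 30% in a dose series; inconclusive means first-round hits that could not be retested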;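 further: growth measured after seven days incubation then overnight dye step; 0% = bacteria only wells and 100% = bacteria with antibiotic; twin plates without the antibiotic show which effects depend on it; some results filed as inactive read as strong as hits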
RecA intein inh: blocks M. tuberculosis RecA intein splicing; P9WHJ3; cell-free RecA intein splicing, fluorescence; inhibition, %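 (about 9 µM by stock and volumes)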; 290,000 tested, 0.75% active; in the data active means inhibition above about 30%; inconclusive means no clear call, values can overlap the other calls;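 further: 0% = vehicle wells and 100% = reference inhibitor control wells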
Target sequence (P9WHJ3 whole entry, looked up): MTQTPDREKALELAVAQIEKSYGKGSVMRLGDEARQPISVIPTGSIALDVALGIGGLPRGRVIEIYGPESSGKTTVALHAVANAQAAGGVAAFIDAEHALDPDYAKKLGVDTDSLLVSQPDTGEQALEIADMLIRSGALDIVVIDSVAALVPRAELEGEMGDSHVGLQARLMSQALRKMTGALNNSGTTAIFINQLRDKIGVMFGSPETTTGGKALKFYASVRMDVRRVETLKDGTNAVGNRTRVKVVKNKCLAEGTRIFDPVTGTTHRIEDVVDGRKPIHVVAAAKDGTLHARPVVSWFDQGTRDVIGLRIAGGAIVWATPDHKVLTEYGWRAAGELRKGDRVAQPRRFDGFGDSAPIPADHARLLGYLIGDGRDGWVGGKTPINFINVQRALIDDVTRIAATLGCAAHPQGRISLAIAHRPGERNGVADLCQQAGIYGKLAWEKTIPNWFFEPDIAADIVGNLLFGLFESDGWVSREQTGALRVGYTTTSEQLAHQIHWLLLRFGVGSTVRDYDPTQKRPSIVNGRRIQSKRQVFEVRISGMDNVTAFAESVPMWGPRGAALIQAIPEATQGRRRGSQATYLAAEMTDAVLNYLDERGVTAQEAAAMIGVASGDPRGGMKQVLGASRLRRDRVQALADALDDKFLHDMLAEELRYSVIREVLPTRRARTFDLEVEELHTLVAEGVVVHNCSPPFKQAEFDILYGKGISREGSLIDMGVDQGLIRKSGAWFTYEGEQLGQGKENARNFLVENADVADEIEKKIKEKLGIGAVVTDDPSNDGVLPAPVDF
Arbovirus anti: antivirals against arbovirus infection | arbovirus infection cell-based antiviral screen | inhibition, % at 10 µM | 200,000 tested, 0.37% active | AID 1251;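 active means inhibition from about 30%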;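 further: bluetongue infection of BSR cells; cell survival read as ATP light after 72 h; 0% = infected wells without compound and 100% = uninfected wells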
Mtb growth: M. tuberculosis H37Rv growth inhibitors, H37Rv strain (AID 1626); M. tuberculosis H37Rv growth inhibition; higher % means a stronger effect; inhibition, % at 10 µM, or IC50 in µM where a hit was titrated; 220,000 tested, 0.95% active;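 active means confirmed in a dose series; inconclusive means inhibition above 80% but not taken into the dose series; inactive means below 80% or under 30% at every dose of the series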;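 further: bacteria incubated seven days before Alamar blue readout; 0% = bacteria only wells and 100% = bacteria with antibiotic wells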
YopH PTP inh: blocks Yersinia enterocolitica YopH tyrosine phosphatase | AID 898 | fluorescence Ex485/Em525 | inhibition, %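 (about 10 µM by stock and volumes)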 | 140,000 tested, 0.16% active;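 active means inhibition of 50% or more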;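 further: controls were vehicle for no effect and minimum signal wells for full effect; inactives centre near -20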
Arbovirus anti repeat: also measured in Arbovirus anti; calls as there; inhibition, %; measured here: 10K subset replicate screen; many hits read low in the repeat;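 first of two repeat runs on a subset; 0% = infected and 100% = uninfected wells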
Starred values were filed as active, the others as inactive; ? = inconclusive; / = not tested or not shown.

SMILES	Mtb betalactam	RecA intein inh	Arbovirus anti	Mtb growth	YopH PTP inh	others
O=C(Oc1ccc(NC2=C(Cl)C(=O)c3ccccc3C2=O)cc1)c1ccc([N+](=O)[O-])cc1	/	10	-37	12%	-12
COc1ccc(S(=O)(=O)Nc2cc3c4c(c2)C(C)C(=O)N4CCC3)cc1OC (centres undefined)	0	0.8	/	/	/
Cc1ccccc1NC(=O)CC1SC(=NC2CCCCC2)NC1=O (centres undefined)	4	0.1	1	-3%	-44	Arbovirus anti repeat=4
CC(C)OCCCNC(=O)NC12CC3CC(CC(C3)C1)C2	70	-0.5	5	-7%	-41
COCCNC(=O)c1ccc(-c2csc(C)n2)cc1	0	1.5	-1	-4%	/
CC1=NNC(=O)C1CCC(=O)N/N=C/c1c(Cl)cccc1Cl (centres undefined)	-10	-0.1	-3	3%	/
O=C(CN1C(=O)COc2ccccc21)NCCN1CCC(Cc2ccccc2)CC1	-3	/	0	6%	-21
CC(C)NC(=O)CSCc1cccc(Br)c1	6	2.3	-10	7%	-21
CCC/C=N/NC(=O)c1cccc(Br)c1	-4	0.2	0	7%	/
Cc1ccc(NC(=O)CN2C(=O)C3CC=CCC3C2=O)cc1S(=O)(=O)N1CCOCC1 (centres undefined)	9	-1.9	10	2%	/
Cc1cc(C)cc(-n2nnc(C(=O)NCc3ccccc3Cl)c2N)c1	-5	-5.0	1	-1%	-26
CCOc1cc(/C=N/NC(=O)C(OC)c2ccccc2)ccc1O (centres undefined)	-6	-3.9	/	/	/
CCN(CC(=O)NC(C)(C)C)Cc1nc2c(Br)cc(Br)cc2c(=O)[nH]1	14	-0.5	/	38%	/
O=C(CCC(=O)c1ccccc1)NCCc1c[nH]c2ccccc12	-12	1.7	0	1%	-31
COc1nc(N)nc(NC23CC4CC(CC(C4)C2)C3)n1	1	/	-2	-5%	-1
COc1ccc(OC)c(-n2c(-c3cc(-c4ccc(F)cc4)n[nH]3)n[nH]c2=S)c1	-15	4.4	4	-1%	-25
CCOCCCN1C(=O)C2C(C(=O)Nc3ccc(OCC)cc3)C3C=CC2(O3)C1C(=O)NC1CCCCC1 (centres undefined)	4	0.3	/	/	/
COc1ccc(OC)c(/C=C/C(=O)OCC(=O)Nc2ccc3c(c2)OCCO3)c1	8	-3.2	-1	0%	-26
CCC(C(=O)OCC(=O)Nc1ccc(C(N)=O)cc1)c1ccccc1 (centres undefined)	0	-1.4	1	0%	/
C[C@@H]1CCC[C@@]2(O[C@H](CCO)C[C@H](O)[C@H]2O)O1	-2	3.2	/	-3%	/
COc1ccc(CCNC(=O)C2CCCN2S(=O)(=O)c2ccc(F)cc2)cc1OC (centres undefined)	-1	-0.9	-2	-4%	/
Cc1nn(C(C)(C)C)c(OC(=O)c2cccs2)c1S(=O)(=O)c1ccccc1	-5	-1.1	-21	-9%	-7
c1ccc(CC(NCc2ccco2)c2ccccc2)cc1 (centres undefined)	-6	1.1	6	11%	/
COc1ccc(OC)c(-c2cc(C(=O)NCCN3CCOCC3)no2)c1	-11	-0.2	12	-2%	-49
O=C(CNC(=O)c1ccc2c(c1)OCCO2)N/N=C/c1cccc(Br)c1	10	4.8	0	1%	/
Cc1cc2c(cc1S(=O)(=O)N1CCN(c3ccccc3)CC1)OCC(=O)N2	9	-2.1	/	/	/
Cc1ccc(-c2n[nH]c(=O)c3ccccc23)c(C)c1	-5	-3.0	/	/	/
COc1ccc(S(=O)(=O)N2CCOCC2)cc1C(=O)N1CCCCC1	-11	-1.9	/	/	/
Cc1ccc(-n2ccnc2SCC(=O)N(CC(C)C)C2CCS(=O)(=O)C2)c(C)c1 (centres undefined)	-5	-1.5	0	-7%	-52
O=C(c1ccc(Br)cc1)c1sc(N2CCOCC2)nc1-c1ccccc1	7	6.8	5	4%	/
O=C(NCCCNCCCNC(=O)c1ccc(/C=N/O)nc1)c1ccc(/C=N/O)nc1	9	-5.3	/	4%	/
Cc1nc(/C(N)=N/OC(=O)Cc2ccccc2)no1	1	-0.2	1	-1%	/
COc1ccc2cc(C(=O)Nc3ccc(S(N)(=O)=O)cc3)sc(=O)c2c1OC	1	-3.0	-8	-12%	/
O=C(c1c[nH]c2ccc(S(=O)(=O)N3CCC4(CC3)OCCO4)cc2c1=O)N1CCOCC1	/	-1.1	11	-7%	-36
Cc1ccc(Cn2cccc2/C=N/NC(=S)Nc2ccc(C)cc2)cc1	-10	-0.4	-3	-2%	/
COc1ccc(OCCNS(=O)(=O)Cc2ccccc2)cc1	-3	2.6	-4	2%	-30
Cc1ccc(C)c(C(=O)Nc2c(C(N)=O)oc3ccccc23)c1	-2	-1.3	4	6%	/	Arbovirus anti repeat=-2
CC(C)CCC(CCN1CCOCC1)c1ccc2c(c1)OCO2 (centres undefined)	3	-0.6	-3	5%	-15
NC(=O)CN1C(=O)C(=O)N(Cc2cccc(Cl)c2)C1=O	-2	2.4	/	/	/
Cc1ccc(-n2[nH]c(C)c(C=Nc3ccc4[nH]c(=O)[nH]c4c3)c2=O)cc1	5	-0.9	-10	-7%	-22
Cc1nn(C(C)C(=O)NCCc2ccccc2)c(=O)c2cc3occc3n12 (centres undefined)	-3	-2.1	/	/	/
CC(C)(C)c1ccc(OCc2ccc(C(=O)N/N=C3\CC4CC=CC34)cc2)cc1 (centres undefined)	/	5.7	-32	11%	-27
COC(=O)c1cn(CC(=O)NC2CCCCCC2)c2ccccc12	-12	-1.4	0	-1%	-21
Nc1nc(-c2ccccc2)c(C(=O)Nc2ccccc2)s1	5	-2.5	-2	-4%	/
CC(C)CCNC1=CC(=O)CC(c2ccccc2)C1 (centres undefined)	8	-1.2	-18	-3%	-18
CCc1nc(Nc2ccc(NC(C)=O)cc2)c2oc3ccccc3c2n1	-6	-0.3	/	/	/
Cn1cnc([N+](=O)[O-])c1N=C(N)N	-7	-0.3	/	-5%	/
CCOc1ccc(NC2CCCCC2NS(=O)(=O)c2ccccc2)cc1 (centres undefined)	9	5.4	/	/	/

Gathered by group: the compounds so far containing fluorine.
SMILES	Mtb betalactam	RecA intein inh	Arbovirus anti	Mtb growth	YopH PTP inh	others
COc1ccc(OC)c(-n2c(-c3cc(-c4ccc(F)cc4)n[nH]3)n[nH]c2=S)c1	-15	4.4	4	-1%	-25
COc1ccc(CCNC(=O)C2CCCN2S(=O)(=O)c2ccc(F)cc2)cc1OC (centres undefined)	-1	-0.9	-2	-4%	/

Random excerpt: 6 entries already listed
SMILES	Mtb betalactam	RecA intein inh	Arbovirus anti	Mtb growth	YopH PTP inh	others
Nc1nc(-c2ccccc2)c(C(=O)Nc2ccccc2)s1	5	-2.5	-2	-4%	/
CC(C)CCC(CCN1CCOCC1)c1ccc2c(c1)OCO2 (centres undefined)	3	-0.6	-3	5%	-15
Cc1ccc(-n2[nH]c(C)c(C=Nc3ccc4[nH]c(=O)[nH]c4c3)c2=O)cc1	5	-0.9	-10	-7%	-22
CC(C)CCNC1=CC(=O)CC(c2ccccc2)C1 (centres undefined)	8	-1.2	-18	-3%	-18
CCc1nc(Nc2ccc(NC(C)=O)cc2)c2oc3ccccc3c2n1	-6	-0.3	/	/	/
CC(C)(C)c1ccc(OCc2ccc(C(=O)N/N=C3\CC4CC=CC34)cc2)cc1 (centres undefined)	/	5.7	-32	11%	-27

(next part)
SMILES	Mtb betalactam	RecA intein inh	Arbovirus anti	Mtb growth	YopH PTP inh	others
Cc1ccc(CNC(=O)CCCNS(=O)(=O)c2cccc3nonc23)cc1	4	1.8	4	-1%	-4	Arbovirus anti repeat=-2
Cc1ccc(N=C2NC(=O)/C(=C\c3ccc(C)s3)S2)cc1	2	-2.1	0	13%	/
O=S(=O)(Nc1cccnc1)c1ccc(Cl)c(C(F)(F)F)c1	27	-2.5	6	-17%	16
O=C(Nc1ccc(OC(F)(F)F)cc1)c1cnccn1	0	-0.4	/	/	/
Cn1c(=O)c(C(=S)NC(=O)C2CC2)c(N)n(Cc2ccccc2)c1=O	66	4.6	2	0%	-18
Cc1c(C(=O)O)sc2nc(SCC(=O)Nc3ccc(S(=O)(=O)NC(C)(C)C)cc3)[nH]c(=O)c12	0	0.8	3	3%	/
CC1=NN(c2ccccc2)C(=O)C1N=Nc1ccccc1 (centres undefined)	52	3.6	3	22%	4
CCCC1(C(=O)OC)NC(c2cc(OC)c(OC)c(OC)c2)C2C(=O)N(CC)C(=O)C21 (centres undefined)	-8	/	1	-4%	-27
CC(=NCCC1=CCCCC1)c1c(O)n(-c2ccccc2)c(=O)[nH]c1=O	-10	-1.9	/	-5%	/
O=C(Cn1c(COc2ccccc2)nc2ccccc21)Nc1cc(Cl)ccc1Cl	5	-1.6	-18	-5%	-22
O=C(Nc1ccccc1)c1nn(-c2cccc(C(F)(F)F)c2)ccc1=O	-5	0.8	-7	0%	/
CN(Cc1ccccc1)C(NC(=O)c1ccccc1)C(Cl)(Cl)Cl (centres undefined)	-9	2.8	4	-3%	-28
O=C(NCc1ccc(F)cc1)c1ccc(Cl)c(NC2=NC3CS(=O)(=O)CC3S2)c1 (centres undefined)	-2	-3.2	/	/	/
O=[N+]([O-])c1ccc(/C=N/Nc2nc(N3CCOCC3)nc(N3CCOCC3)n2)cc1	-6	-2.9	9	-11%	/
CC(Sc1nncn1C)C(=O)NCc1ccc2c(c1)OCO2 (centres undefined)	14	-2.2	4	5%	/
C=CCC1(CC=C)CCCN1C(=O)c1cc(COc2cccc(OC)c2)on1	6	10	/	/	/
C=CCNC(=O)c1cc(-c2cccnc2)nc2ccccc12	-2	-0.5	/	/	/
Cc1nnc(NC(=O)c2cccc(S(=O)(=O)N3CC(c4ccccc4)CC3=O)c2)s1 (centres undefined)	-7	1.5	12	-12%	-22
CC(C)(C)NC(=O)c1ccccc1-c1nc2ccccc2s1	-2	2.1	/	-7%	/
COc1ccc(N(CC(=O)N/N=C(\C)c2ccc(C)cc2)S(=O)(=O)c2ccccc2)cc1	4	-2.0	/	/	/
Cc1cccc(C(=O)NC(=S)Nc2ccccc2C(F)(F)F)c1	-1	-4.0	-7	9%	-25
C/C(NCc1cccnc1)=C(\C#N)C(=O)NCc1ccccc1	-12	-0.9	13	4%	-16
O=C1NCCCc2c1no[n+]2[O-]	2	-2.9	7	0%	-33
COc1ccc(OC)c(-n2c(=S)[nH]c3cc(C(=O)N4CCC(C(N)=O)CC4)ccc3c2=O)c1	-2	-5.3	-5	-9%	-22
Cc1ccc(C)c(OCC(O)CNC2CCCC2)c1 (centres undefined)	5	-0.8	/	/	/
CCc1ccccc1NC(=O)C(C)n1nc([N+](=O)[O-])c(Br)c1C (centres undefined)	13	/	-1	2%	-24
CCCCn1c(N)c(N(CC)C(=O)c2ccc(Cl)c([N+](=O)[O-])c2)c(=O)[nH]c1=O	10	-8.0	/	/	/
O=S(=O)(NCCC1=CCCCC1)c1c(Cl)cccc1Cl	-6	5.0	/	/	/
Cc1nc([N+](=O)[O-])c(Sc2nc3ccccc3[nH]2)n1Cc1ccccc1	25	38*	-13	29%	-15
Cc1cccnc1NC(=O)CNC(=O)c1cccs1	0	-1.4	/	/	/
CC(=O)Nc1ccc(NC(=O)CSc2ncnc3sc(C)c(C)c23)cc1	-4	1.7	/	/	/
COc1ccc(CNC(=O)CN2C(=O)CCSc3ccc(S(=O)(=O)N4CCCC4)cc32)cc1	3	-2.0	/	/	/
O=C1C2C3C=CC(C3)C2C(=O)N1CN(Cc1ccccc1)CN1C(=O)C2C3C=CC(C3)C2C1=O (centres undefined)	9	7.8	-5	-2%	-52
COC(=O)CSc1cnc2ccccc2n1	-6	1.3	5	-1%	-18
Cc1ccc(NC(=O)CCCN2C(=O)c3cccc4cccc(c34)C2=O)cc1	-3	0.3	-10	-8%	-15
CC(=O)Nc1ccccc1C(=O)C(=O)Nc1ccc(C)c(F)c1	4	-2.6	-7	60%	-32
O=C(CO/N=C/c1ccc(OC(F)F)cc1)NC1CCCC1	3	-0.8	-4	-17%	/
CCOP(=O)(OCC)C(O)c1ccc(OC)c(OC)c1 (centres undefined)	-10	0.7	2	3%	-21
c1ccc(-c2nc(-n3nc4ccccc4n3)nc3ccccc23)cc1	1	-3.1	12	13%	-21
C=CCc1cc(C=O)cc(OCC)c1O	0	1.3	-8	-11%	/
CC(OC(=O)c1ccccc1Oc1ccccc1)C(=O)NC1CC1 (centres undefined)	-4	4.0	3	5%	/
CC(C)CC(=O)Nc1ccc(N2CCOCC2)cc1	1	4.3	6	2%	6
CC1=CC=CN2CC(O)CN=C12 (centres undefined)	-5	-2.4	7	/	-14
Cc1ccc(-c2nc(NC(=O)c3nn(C)cc3[N+](=O)[O-])sc2C)cc1	?	0.6	-45	-2%	-2
Cc1ccccc1/C=C1\Sc2ccc(C(=O)N3CCN(c4ccccn4)CC3)cc2N(C)C1=O	5	4.7	/	/	/
COc1ccc(-c2cc(C(=O)OCC(=O)N3CCCC3)c3ccccc3n2)cc1	92	7.1	-1	8%	-22

Screens from PubChem BioAssay.

The list is partial; count on the stated rates, not on these rows.
